Calb FLC: C. albicans growth inhibition with fluconazole, primary screen, CaCi-2 strain, Alamar Blue fluorescence | 300,000 compounds, 0.57% hits | AID 1979, 2009 | C. albicans CaCi-2 (fluconazole-resistant clinical isolate) + fluconazole, 48 h | growth inhibition, % (concentration not given with the values);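 active = most replicates above 75%; inconclusive = exactly half above 75%; inactive = most below 75%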;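 also: all wells also contain fluconazole at 8 µg/ml as a sub-toxic cotreatment; 0% = median of DMSO wells and 100% = median of geldanamycin control wells; wells of about 8 µL received 7.5 nL stock; the first replicate is given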
MLL AF4-AF9 inh: inhibitors of AF4 peptide binding to AF9, primary screen, biochemical, AlphaScreen, biotin-AF4 peptide, FLAG-AF9, single point; Protein AF-9 (Homo sapiens), P42568; inhibition, % at 10 µM; 350,000 compounds, 0.47% hits; AID 651704, 2012;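 active = every replicate reaching a set inhibition limit, whatever the replicate mean, cut at about 25% in these data; inconclusive = mean inhibition reaches that limit but some replicates miss it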;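 also: 0% = plate neutral control median and 100% = total signal loss; the record names both 10 and 1 µM as test concentration; the first replicate is given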
Target sequence (P42568 whole entry, looked up): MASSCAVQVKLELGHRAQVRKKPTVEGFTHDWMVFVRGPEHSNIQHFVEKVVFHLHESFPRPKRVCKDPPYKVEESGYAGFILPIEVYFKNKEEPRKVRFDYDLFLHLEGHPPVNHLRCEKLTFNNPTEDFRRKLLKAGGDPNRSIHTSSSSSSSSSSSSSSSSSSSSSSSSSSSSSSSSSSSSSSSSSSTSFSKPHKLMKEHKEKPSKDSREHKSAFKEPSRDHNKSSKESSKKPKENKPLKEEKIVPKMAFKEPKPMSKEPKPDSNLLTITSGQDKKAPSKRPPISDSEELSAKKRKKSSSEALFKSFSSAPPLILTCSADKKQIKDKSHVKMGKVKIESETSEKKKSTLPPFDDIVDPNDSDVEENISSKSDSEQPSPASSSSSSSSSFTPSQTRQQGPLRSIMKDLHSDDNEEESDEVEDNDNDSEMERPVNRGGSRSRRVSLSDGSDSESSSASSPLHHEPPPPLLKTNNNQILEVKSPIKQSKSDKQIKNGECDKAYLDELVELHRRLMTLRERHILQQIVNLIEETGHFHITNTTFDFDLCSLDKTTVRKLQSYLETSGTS
RanGTP-Impb inh: inhibitors of RanGTP-importin-beta interaction, primary screen, biochemical, FRET, CFP-Ran, YFP-importin-beta, homogeneous | cell-free CFP-Ran/YFP-importin-beta FRET ratio | 300,000 compounds, 1.1% hits | inhibition, % (no concentration beside the values) | Ran GTPase (GTP-bound) - importin-beta complex;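 active = most replicates above 15%; inconclusive = exactly half above 15%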;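 also: 0% = DMSO wells and 100% = Ran loaded with GDP instead of GTP; wells of about 40 µL received 100 nL stock; the first replicate is given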
Bfl-1 A1 inh: caspase 3/7 activation in MEF A1-2A-BIM cells, primary screen, A1 inhibitor project, cell-based, luminescence, HTS. Caspase-Glo 3/7 luminescence, 3 h; percent of clofoctol response, vehicle zero. 330,000 compounds, 0.066% hits. caspase activation, % (no concentration beside the values);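 active = over half of replicate activation scores above 10%, or exactly half above 10 with the replicate mean above 10; inconclusive = replicate mean below 10 yet half the replicates above 10; inactive = over half of replicates below 10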;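 also: wells of about 30 µL received 50 nL stock; many hits fall short of the cut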
LANA-H2A inh: blockers of LANA interaction with H2A/H2B – biochemical, FP readout, HTS, primary screen; Protein LANA1 (Human herpesvirus 8 type P (isolate GK18)), Q9QR71; cell-free LANA-H2A/H2B peptide, fluorescence polarization; inhibition, % (no concentration beside the values); 320,000 compounds, 0.6% hits; AID 2629, 2010; in the data active = inhibition mostly above about 10%, no sharp cut-off; inactive = mostly below about 6.7%;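 also: stock transfer was 7.5 nL into about 10 µL; 0% = median of vehicle wells and 100% = median of positive control wells; one replicate is shown; the record names a cut of 25% in any replicate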
Vif A3G: inhibitors of Vif binding to APOBEC3G peptide, primary screen, biochemical, TR-FRET, GST-Vif 1-94, biotin-A3G peptide, dose response retest (AID 1117319). Virion infectivity factor (Human immunodeficiency virus type 1 group M subtype B (isolate …. TR-FRET GST-Vif / biotin-A3G peptide binding; higher % means a stronger effect; test concentration not given here; strong numbers were not always called active. inhibition, %; hits with a dose series show IC50 in µM. 260,000 compounds, 0.57% hits;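 active = above the screen mean plus three standard deviations and confirmed in dose response; inconclusive = results disagree or hit not tested in dose response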;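 also: Vif residues 1-94 fused to GST binding biotinylated APOBEC3G peptide 110-148; 0% = full assay without inhibitor and 100% = GST in place of GST-Vif; retest series ran down from 100 µM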
T cruzi inh: inhibitors of intracellular T. cruzi growth, primary screen, luminescence, NIH3T3 host cells | inhibition, % (test concentration not listed) | AID 1885, 2009 | 300,000 compounds, 1.4% hits | T. cruzi beta-gal in NIH3T3, 90 h;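 active = mean inhibition across valid replicates above about 55%, limit read from the data; inconclusive = mean below that limit but half or more replicates reach it; inactive = mean below it, under half of replicates reach it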;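 also: signal also drops with host cell toxicity which is not excluded here; 0% = plate median of DMSO wells and 100% = zero luminescence signal; higher percent means less beta-gal luminescence so fewer parasites; stock transfer was 50 nL into about 50 µL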
Beta apoptosis: inhibitors of cytokine-induced beta cell apoptosis, primary screen, luminescence. INS-1E cytokine-induced death, ATP luminescence, 48 h; percent of positive-control rescue, neutral wells zero. protection from apoptosis, % (test concentration not listed). 300,000 compounds, 0.8% hits;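 active = all replicates at 75% or more, or half of them and the mean; inconclusive = half reach 75% but not the mean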;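 also: 0% = cytokine-treated negative control wells and 100% = positive control rescue; higher means more ATP so stronger rescue from cytokine killing; wells of about 40 µL received 100 nL stock; the first replicate is given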
Starred values were filed as active, the others as inactive; ? = inconclusive; . = no result given; & = joins results of further samples. Hits appear at their usual frequency; any-hit rate near 4.3%.

1	CCOc1ccc(NC(=O)c2cc([N+](=O)[O-])ccc2N2CCOCC2)cc1
2	O=c1cnc2ccccc2n1CC1CCCCC1
3	Cc1cc(C)n(CC(C)NCc2cn[nH]c2-c2cccc3ccccc23)n1 (stereo not given)
4	O=C(C1CCCN(S(=O)(=O)c2cccc3cccnc23)C1)N1CCc2ccccc21 (stereo not given)
5	O=C(CN1C(=O)COc2ccccc21)N1CCOCC1

assay / compound	1	2	3	4	5
Calb FLC	-2	4	-11	4	5
MLL AF4-AF9 inh	3.6	-1.1	0.1	2.8	-3.4
RanGTP-Impb inh	2.6	4.8	-2.2	6.7	0.5
Bfl-1 A1 inh	-1.2	-0.5	-0.2	-0.8	0.1
LANA-H2A inh	-0.9	-5.7	-1.4	-2.0	-5.6
Vif A3G	.	1%	4%	6%	.
T cruzi inh	7	-7	-10	13	-26
Beta apoptosis	1	.	-4	-4	1

6	Cc1ccc(C2CC2C(=O)NNC(=S)Nc2cccc(Cl)c2)cc1 (stereo not given)
7	Cc1ccc(NC(=O)CSc2nnc(CN3CCOCC3)n2-c2ccccc2)cc1
8	CCc1ccc(OCC(=O)NC(C)C)cc1
9	Cc1ccc2c(n1)sc1c(N)ncnc12
10	O=C(OCN1C(=O)C(=O)c2ccccc21)c1ccc(Cl)cc1

assay / compound	6	7	8	9	10
Calb FLC	112*	17	-18	-23	-1
MLL AF4-AF9 inh	.	.	0.8	.	-1.8
RanGTP-Impb inh	1.8	0.2	-1.7	4.4	8.5
Bfl-1 A1 inh	-0.9	-0.5	-0.2	0.6	1.4
LANA-H2A inh	-2.4	-2.7	-5.7	4.1	-5.9
Vif A3G	1%	0%	-3%	-7%	.
T cruzi inh	5	0	-11	-3	-6
Beta apoptosis	6	-2	-2	-1	-5

Rewritten with two lines to a compound: part of the list above
Fields: Calb FLC, MLL AF4-AF9 inh, RanGTP-Impb inh, Bfl-1 A1 inh, LANA-H2A inh, Vif A3G, T cruzi inh, Beta apoptosis
[2] O=c1cnc2ccccc2n1CC1CCCCC1
  4, -1.1, 4.8, -0.5, -5.7, 1%, -7, .
[3] Cc1cc(C)n(CC(C)NCc2cn[nH]c2-c2cccc3ccccc23)n1 (stereo not given)
  -11, 0.1, -2.2, -0.2, -1.4, 4%, -10, -4
[4] O=C(C1CCCN(S(=O)(=O)c2cccc3cccnc23)C1)N1CCc2ccccc21 (stereo not given)
  4, 2.8, 6.7, -0.8, -2.0, 6%, 13, -4

(continued)
11	COc1c(C)cc(C(=O)C2CCCN(C(=O)c3ccoc3)C2)cc1C (stereo not given)
12	CCOC(=O)Cc1cc(=O)n2[nH]cc(-c3cccc(Br)c3)c2n1
13	CSc1nc(C)cc(Oc2ccc(OCC(N)=O)nn2)n1
14	O=C(Nc1nc2ccc([N+](=O)[O-])cc2s1)c1c(F)cccc1F
15	CC(=O)c1c(C)[nH]c(C(=O)CSc2nc3ccccc3c(=O)n2CCCN2CCOCC2)c1C

assay / compound	11	12	13	14	15
Calb FLC	-8	10	3	22	-21
MLL AF4-AF9 inh	-0.5	2.8	0.2	-0.7	.
RanGTP-Impb inh	-1.0	-6.1	3.9	-0.2	3.0
Bfl-1 A1 inh	0.7	0.5	0.0	-3.3	0.7
LANA-H2A inh	-1.5	1.0	0.6	-7.0	-4.7
Vif A3G	-7%	.	5%	-2%	-2%&2%
T cruzi inh	1	-18	-3	-4	15
Beta apoptosis	-5	1	-16	24	-14

16	CCOC(=O)C1=C(Cc2ccc(C)cc2)C(=O)c2ccccc2C1=O
17	COc1ccc(C(=O)N/C(=C/c2ccccc2F)C(=O)NCCN2CCOCC2)cc1OC
18	COc1ccc2nc(SCC(=O)c3c(N)n(C4CC4)c(=O)[nH]c3=O)[nH]c2c1
19	O=C(NC(=S)Nc1ccc2c(c1)OCO2)c1ccc(Cl)cc1
20	COCCN=C1NN=C(c2ccc(NC(C)=O)cc2)CS1

assay / compound	16	17	18	19	20
Calb FLC	28	.	.	-1	1
MLL AF4-AF9 inh	23	-2.7	0.3	.	-5.4
RanGTP-Impb inh	-11	3.3	.	-0.2	2.4
Bfl-1 A1 inh	0.3	-0.2	2.6	0.4	-0.1
LANA-H2A inh	4.4	-1.5	-13	.	-9.2
Vif A3G	?	.	4%	.	-1%
T cruzi inh	-23	-2	.	1	-14
Beta apoptosis	0	1	-2	-2	3

21	CC[C@H](C)Cc1cn([C@@H](CCCN=C(NC(=O)OC(C)(C)C)NC(=O)OC(C)(C)C)C(=O)NCCCCCCCCCCC(=O)N2CCN(C(=O)OC(C)(C)C)CC2)nn1
22	Cc1ccc(NC(=O)C(NS(=O)(=O)c2cccc3nsnc23)C(C)C)nc1 (stereo not given)
23	O=C(CNC(=O)Cc1ccccc1)NCc1cccs1
24	CCCn1c(SCC(=O)Nc2nnc(C)s2)nnc1-c1ccoc1C
25	CCc1ccc2c(COC(=O)CNS(=O)(=O)c3ccc(NC(C)=O)cc3)cc(=O)oc2c1

assay / compound	21	22	23	24	25
Calb FLC	86*	-9	.	0	9
MLL AF4-AF9 inh	.	1.6	-0.6	.	-0.1
RanGTP-Impb inh	2.9	-1.9	.	5.7	-6.8
Bfl-1 A1 inh	0.3	0.2	1.3	0.0	1.2
LANA-H2A inh	-2.6	-4.7	-2.5	-0.1	-2.3
Vif A3G	.	-8%	-3%	-1%	.
T cruzi inh	59*	-11	.	6	-12
Beta apoptosis	39	-2	0	7	-7

26	COc1ccc(Br)cc1CNC(C)c1ccccc1 (stereo not given)
27	O=C1CNC(=O)N1Cc1ccc(Br)cc1
28	CC1CCN(C(=O)c2ccc(NC(=O)c3cccs3)cc2)CC1
29	COCc1nnc(NS(=O)(=O)c2ccc(F)cc2)s1
30	COc1ccc(N/N=C(\C#N)C(=O)NCCc2ccc(OC)c(OC)c2)cc1

assay / compound	26	27	28	29	30
Calb FLC	-37	-7	-1	1	2
MLL AF4-AF9 inh	.	.	-2.7	1.6	.
RanGTP-Impb inh	-1.1	1.9	8.3	1.7	-6.1
Bfl-1 A1 inh	0.6	1.0	-1.7	0.1	0.4
LANA-H2A inh	2.7	-4.6	2.8	3.5	-3.5
Vif A3G	.	?	.	.	-1%
T cruzi inh	-11	-27	3	4	18
Beta apoptosis	11	3	.	-6	.

31	O=C(c1ccc(CN2CCOCC2)cc1)N1CCC(Cc2ccccc2)CC1
32	O=C(COC(=O)c1ccc[n+]([O-])c1)Nc1ccc([N+](=O)[O-])cc1C(F)(F)F
33	CN1C(C(=O)NCC2CC2)CC2Cn3c(nc4ccccc43)C21 (stereo not given)
34	O=C(c1ccccc1)N1CCN(C(=O)c2ccccc2)CC1
35	C=CCOc1ccc(C=NNc2ccc(S(=O)(=O)Nc3ccccc3C(=O)O)cc2[N+](=O)[O-])cc1OC

assay / compound	31	32	33	34	35
Calb FLC	-1	.	0	-4	.
MLL AF4-AF9 inh	.	-0.1	-10	-0.1	9.0
RanGTP-Impb inh	0.2	.	8.2	4.5	.
Bfl-1 A1 inh	-0.1	-0.9	-1.8	0.0	-0.2
LANA-H2A inh	3.9	6.0	4.7	-0.3	0.1
Vif A3G	24%	.	.	5%	.
T cruzi inh	18	.	-19	-5	.
Beta apoptosis	-17	9	-2	-3	4

36	CN(Cc1ccccc1)C(=O)c1ccco1
37	Cc1nc(Cc2nnc(SC(C)C(=O)Nc3cccc(C#N)c3)o2)cs1 (stereo not given)
38	Cc1ccc(NC(=O)CSCC(=O)N2CCN(C(=O)c3ccco3)CC2)cc1
39	CN1CCN(c2oc(-c3ccccc3)nc2S(=O)(=O)c2ccccc2)CC1
40	Cc1cc(NC(=O)CCCC(=O)O)nc(C)n1

assay / compound	36	37	38	39	40
Calb FLC	16	-5	.	.	10
MLL AF4-AF9 inh	-2.1	.	0.0	3.2	.
RanGTP-Impb inh	2.0	2.0	.	.	-2.1
Bfl-1 A1 inh	1.1	0.1	1.0	1.0	-0.1
LANA-H2A inh	-3.8	2.6	-1.0	-3.7	9.4
Vif A3G	-4%	-7%	.	-12%	16%
T cruzi inh	0	-11	.	.	-9
Beta apoptosis	-8	-8	2	0	-3

41	Cc1nn(-c2ccccc2)c(N2CCCCC2)c1/C=N/O
42	CCCC(=O)NCCc1nc2ccccc2n1CCC
43	COC(=O)C1=C(C)NC(=O)/C1=C\c1cc(C)n(-c2ccc(F)cc2)c1C
44	Cc1ccc(S(=O)(=O)N2CCC(C(=O)Nc3nnc(-c4ccc(F)cc4)s3)CC2)cc1
45	S=c1nc(C2CC2)[nH]c2ccccc12

assay / compound	41	42	43	44	45
Calb FLC	-9	0	-8	4	6
MLL AF4-AF9 inh	-12	-17	16	.	.
RanGTP-Impb inh	-5.1	4.9	-1.5	5.8	?
Bfl-1 A1 inh	-0.6	0.1	-0.1	-0.6	0.5
LANA-H2A inh	2.2	4.3	3.8	-3.4	-2.2
Vif A3G	0%	0%	.	.	7%
T cruzi inh	15	5	-15	0	-12
Beta apoptosis	-10	-3	-6	-8	-2

46	CCOc1ccc(C(=O)Cc2cc3cccc(OC)c3oc2=O)cc1
47	COc1cc(OC)cc(C(=O)N[C@H](C(=O)Nc2ccc3c(c2)OCO3)C(C)C)c1
48	CC(C)NC(=O)NC(=O)COc1cccc2c1OC(C)(C)C2
49	N#CCCn1cc(/C=N/NC(=O)c2ccncc2)c(-c2ccccc2)n1
50	CCN(CC(=O)NCc1ccc(Cl)cc1)C(=O)/C=C/c1ccc(C#N)cc1
51	Cc1ccc2[nH]c(=O)c(CN(Cc3nnnn3Cc3ccccc3)C3CCCC3)cc2c1
52	O=C(N/N=C/c1cc([N+](=O)[O-])cc([N+](=O)[O-])c1O)/C(=C\c1cccs1)NC(=O)c1ccccc1

assay / compound	46	47	48	49	50	51	52
Calb FLC	5	-3	-5	19	-4	0	2
MLL AF4-AF9 inh	5.2	4.7	.	.	-20	.	-1.2
RanGTP-Impb inh	1.4	1.6	2.8	2.7	0.8	-9.1	2.9
Bfl-1 A1 inh	-0.3	-0.6	0.2	2.3	0.8	-0.3	-0.6
LANA-H2A inh	-4.3	2.4	3.1	2.3	1.6	-5.2	1.3
Vif A3G	-6%	.	23%	8%	.	13%	?
T cruzi inh	12	-1	2	-17	7	22	-10
Beta apoptosis	.	2	3	-1	-4	-6	-8
